TRPV1 potentiator: HTS Assay for Compounds that Act as Potentiators of the Vanilloid Receptor 1. Transient receptor potential cation channel subfamily V member 1 (Homo sapiens), Q8NER1. TRPV1-expressing cells, Fluo-8 calcium influx, capsaicin EC20 potentiation; host cell line not named in the record; control for the full effect not named in the record. potentiation, % at 8.33 µM. 320,000 compounds, 0.02% hits. AID 540277, 2011; active means potentiation above 80%; inconclusive means 30% to 80%; inactive means below 30%; also: 0% is about no effect
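TRPV1-expressing cells were cultured overnight at 35.5C and loaded with Fluo-8 calcium dye for 40 to 90 min at room temperature. After a 10 s baseline, compound was added and calcium influx was read kinetically for 3 min (ex 480/em 520 nm).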
CtBP-E1A blk: qHTS Assay for Inhibitors of the CtBP/E1A Interaction | AID 651724, 2012 | activity change, % (test concentration not listed) | 340,000 compounds, 0.49% hits | AlphaScreen GST-E1A/His-CtBP binding, 1536-well; stronger effect = lower value; control for the full effect not named in the record | CtBP / adenovirus E1A interaction (AlphaScreen); in the data active means activity change below about -65%; inconclusive means about -30% to -65%; inactive means above about -30%; also: % is scaled to controls: 0 for no effect and ±100 for the full control effect
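AlphaScreen with 125 nM GST-E1A and 125 nM His-CtBP (5X stocks) in Tris pH 8.0, 300 mM NaCl, BSA, Tween 20, TCEP. Compounds preincubated 2 h at 37 deg C, then glutathione donor/nickel acceptor beads added for 1 h at 37 deg C in dark.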
TRPML1 blocker: qHTS for Inhibitors of the Human Mucolipin Transient Receptor Potential 1 (TRPML1); Mucolipin-1 (Homo sapiens), Q9GZU1; TRPML1-inducible cells, Ca2+ dye fluorescence, FDSS; stronger effect = lower value; inhibition of EC80 agonist-evoked calcium signal; activity change, negative = inhibition, % (no concentration beside the values); 390,000 compounds, 0.02% hits; in the data active means activity change below about -50%; inconclusive means about -30% to -50%; inactive means above about -30%;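 also: stimulus is agonist 54-4 at its EC80 concentration; % is scaled to controls: 0 for no effect and ±100 for the full control effect; compound concentration not given in the record; the text of the record puts the active cut at -80%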
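Calcium fluorescence in TRPML1-DL cells induced overnight with Tet: a 110 s read after compound pin addition, then a 110 s antagonist read after challenge with 54-4 at 4 uM final (EC80).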
TRPML1 ag: qHTS for Agonists of the Human Mucolipin Transient Receptor Potential 1 (TRPML1); TRPML1-expressing cells, Ca2+ dye fluorescence, FDSS; host cell line not named in the record; reference of the full effect not given here; activation, % (test concentration not listed); 410,000 compounds, 0.12% hits; AID 624414, 2012; in the data active = activation above about 50%; inconclusive = about 30% to 50%; inactive = below about 30%; also: 0% is about no effect; the text of the record puts the active cut at 80%
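Tetracycline-induced TRPML1-DL cells are seeded and incubated overnight before loading with a no-wash Ca2+ dye and quencher. Agonist activity is taken from the 110 s fluorescence read following compound pin-transfer on an FDSS, before EC80 54-4 challenge.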
Six1-Eya2 blk: qHTS Assay for Inhibitors of the Six1/Eya2 Interaction; Homeobox protein SIX1 (Homo sapiens) + Protein phosphatase EYA2 (Homo sapiens), …; AlphaScreen GST-Six1/His-Eya2 binding, biochemical; stronger effect = lower value; control for the full effect not named in the record; activity change, % (no concentration beside the values); 360,000 compounds, 0.56% hits; AID 651725, 2012; in the data active = activity change below about -65%; inconclusive = about -30% to -65%; inactive = above about -30%; also: % is scaled to controls: 0 for no effect and ±100 for the full control effect
Target sequence (O00167 whole entry, looked up): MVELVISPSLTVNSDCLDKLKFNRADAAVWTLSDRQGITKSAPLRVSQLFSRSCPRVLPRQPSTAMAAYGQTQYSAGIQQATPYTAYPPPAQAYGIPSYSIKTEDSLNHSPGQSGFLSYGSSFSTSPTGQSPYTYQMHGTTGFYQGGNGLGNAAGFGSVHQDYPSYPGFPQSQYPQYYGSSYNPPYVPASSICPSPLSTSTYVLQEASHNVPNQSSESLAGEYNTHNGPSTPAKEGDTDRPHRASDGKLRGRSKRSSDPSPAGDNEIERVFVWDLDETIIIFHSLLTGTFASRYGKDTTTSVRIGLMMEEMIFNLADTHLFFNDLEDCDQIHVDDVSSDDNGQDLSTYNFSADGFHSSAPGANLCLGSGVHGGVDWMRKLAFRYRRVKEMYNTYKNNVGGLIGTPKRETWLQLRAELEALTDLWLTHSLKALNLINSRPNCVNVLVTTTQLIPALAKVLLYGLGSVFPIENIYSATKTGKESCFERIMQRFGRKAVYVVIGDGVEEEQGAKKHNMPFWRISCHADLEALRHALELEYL
Target sequence (Q15475 whole entry, looked up): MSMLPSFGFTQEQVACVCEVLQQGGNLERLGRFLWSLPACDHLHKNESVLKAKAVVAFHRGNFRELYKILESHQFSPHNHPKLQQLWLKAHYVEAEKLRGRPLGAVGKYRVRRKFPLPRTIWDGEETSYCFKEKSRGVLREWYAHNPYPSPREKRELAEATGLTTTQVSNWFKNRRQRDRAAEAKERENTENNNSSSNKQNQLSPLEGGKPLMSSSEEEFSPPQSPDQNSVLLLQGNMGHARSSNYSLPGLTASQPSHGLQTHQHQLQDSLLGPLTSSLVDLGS
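GST-Six1 + His-Eya2 (5X stock: 250/500 nM); Tris pH 8.0, 300 mM NaCl, 0.05% BSA, 0.02% Tween 20; GSH donor/Ni acceptor beads; 1 h 37 °C dark; AlphaScreen readout.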
D2 potentiator: Beta-Arrestin HTS for Positive Allosteric Modulators of the Human D2 Dopamine Receptor: Potentiators; DiscoveRx D2 beta-arrestin cells, luminescence, 90 min; 100% = 57 uM dopamine signal; potentiation, % (no concentration beside the values); 360,000 compounds, 0.23% hits; AID 624464, 2012; active = potentiation of 50% or more; inconclusive = 30% to 50%; inactive = 30% or less;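 also: compound concentration not given in the record; tested on top of an EC20 dose of dopamine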
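PathHunter beta-arrestin assay in DiscoveRx D2 cells. Compounds were added with an EC20 of dopamine (50 nM final) for 90 min at 37 deg C. Luminescence was read 1 h after detection reagent, with 57 uM dopamine as the EC100 control.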
The depositor's hits bear a star; ? = inconclusive; . = not tested or not shown; & = joins results of further samples.

Values in the order – TRPV1 potentiator	CtBP-E1A blk	TRPML1 blocker	TRPML1 ag	Six1-Eya2 blk	D2 potentiator
1) CCOC(=O)C(CC)n1cnc2c(oc3ccccc32)c1=O (stereo not drawn)
 : 25	5	-2	-0.4	0	-8
2) COc1cc2ccccc2cc1C(=O)NCCCN1CCOCC1
 : ?	4	14	-0.4	2	-4
3) CCOC(=O)c1cc2c(ccn2C)n1CC(=O)Nc1ccc(F)cc1
 : 12	-6	43	0.8	6	-4
4) CC(=O)N1c2ccc(S(=O)(=O)NCC3CCC(C(=O)N4CC(C)CC(C)C4)CC3)cc2CC1C (stereo not drawn)
 : 2	.	-8	0.4	3	-2
5) COc1ccc(C2(O)CCN(C(=O)NC3CCCCC3)CC2)cc1
 : -20	10	-7	-0.3	5	-11
6) C=CCNc1ncnc2c1cnn2-c1ccc(OC)cc1
 : -11	-9	-8	0.0	-4	18
7) CC(C)c1nnc(NC(=O)CCS(=O)(=O)c2nc(-c3cccs3)cc(C(F)(F)F)n2)s1
 : 24	-19	-4	1.8	7	-26
8) Cc1cc(C)c(NC(=O)COC(=O)C2CCC2)c(Cl)c1
 : 9	3	0	-0.6	3	-11
9) CCOc1ccc(S(=O)(=O)Nc2cccc(C(=O)N3CCN(c4ccccc4O)CC3)c2)cc1
 : 7	-9	12	1.2	-4	2
10) O=C(Cn1cc(C(=O)c2cccs2)c2ccccc21)NC1CCCCC1
 : -8	-8	-7	1.6	-1	-17

(more compounds)
Values in the order – TRPV1 potentiator	CtBP-E1A blk	TRPML1 blocker	TRPML1 ag	Six1-Eya2 blk	D2 potentiator
11) CS(=O)(=O)N(CC(=O)Nc1ccc(Cl)c(Cl)c1)C1CCCCC1
 : -12	2	7	0.1	3	-2
12) CC1=C(CC/C(C)=N/NC(N)=S)C(C)(C)CCC1
 : 17	-1	5	0.3	-2	-1
13) O=C(Cn1cnc2c(OCc3ccccc3)ncnc21)NCCCc1ccccc1
 : .	2	4	-0.1	1	-1
14) COc1ccc(S(=O)(=O)N2CCCCC2c2cc(C(=O)N3CCOCC3)no2)cc1 (stereo not drawn)
 : .	3	.	-0.3	-2	-1
15) CN(CC(=O)Nc1ccc(OC(F)(F)F)cc1)C(=O)Cc1ccc2c(c1)CCC2
 : 8	1	3	2.8	-3	0
16) Cc1c(CN2CC[C@@H](N3CCN(c4ccccn4)CC3)[C@H](O)C2)[nH]c2ccc(F)cc12
 : 13	-17	28	0.9	-13	21
17) COc1cc(OC)c(OC)cc1CNC(=O)c1cc(=O)c2ccccc2o1
 : 23	-7	-6	-0.3	3	-7
18) CN(CC(=O)Nc1ccccc1Br)C(=O)c1cccnc1Nc1cccc(C(F)(F)F)c1
 : 1	8	-2	0.1	-5	9
19) COc1ccc(-c2c(C#N)c(N)n(N)c(=O)c2C#N)cc1Cl
 : 8	-12	-4	-0.3	-13	-9
20) CC(C)Oc1ccc(C(=O)NN2C(=O)NC3(CCCCC3)C2=O)cc1
 : 6	-1	30	0.0	12	14

Next entries follow.
Values in the order – TRPV1 potentiator	CtBP-E1A blk	TRPML1 blocker	TRPML1 ag	Six1-Eya2 blk	D2 potentiator
21) CCOC(=O)c1ccccc1NC(=O)COC(=O)c1cc([N+](=O)[O-])ccc1N1CCOCC1
 : 3	-17	4	1.6	-23	-9
22) CC1CCN(CCCCOc2ccc(C(C)(C)C)cc2)CC1
 : 1	0	-4	1.3	0	-13
23) CC(C)c1ccc(NC(=O)C2Cc3c(-c4ccc5c(c4)OCO5)ccnc3O2)cc1 (stereo not drawn)
 : .	-5	.	-0.2	-20	1
24) CCCCn1cnc2c(SCc3ccccc3F)nc(N)nc21
 : .	-3	11	2.2	-3	0
25) COc1ccc(C(CNC(=O)c2cc(C)oc2C)N2CCOCC2)cc1 (stereo not drawn)
 : 4	-27	-8	-0.1	-10	-12
26) COc1ccccc1Nc1nnc(SCC(=O)N2CCCC2=O)s1
 : 2	10	15	1.2	-2	-10
27) CN(C)c1nc(F)c(F)c(S(=O)(=O)c2ccccc2)c1F
 : 3	17	-7	-0.4	12	0
28) O=C(Nc1cccc(N=Cc2cc(Br)cc(Br)c2O)c1)c1ccco1
 : -4	2	10	2.3	-16	-27
29) Cc1nc(N2CCOCC2)nc(OCCN(C)C)c1[N+](=O)[O-]
 : 17	.	13	0.0	-2	-4
30) COc1ccccc1NC(=O)CCc1nc(-c2cccs2)no1
 : 10	8	-8	0.6	4	-6

Further structures:
Values in the order – TRPV1 potentiator	CtBP-E1A blk	TRPML1 blocker	TRPML1 ag	Six1-Eya2 blk	D2 potentiator
31) Cc1cccc(C)c1NC(=S)N(CCN(C)C)C(C)c1cccnc1 (stereo not drawn)
 : -14	-16	-9	0.2	22	-3
32) COc1cc(OC)cc(C(=O)NCC(=O)OCc2ccc(Cl)c(Cl)c2)c1
 : 15	15	22	1.7	3	-2
33) CC1(C)OC(=O)C(=CNc2ccccn2)C(=O)O1
 : ?	7	9	-0.2	7	5
34) CCOC(=O)CC1C(=O)NCCN1S(=O)(=O)c1cc(Cl)c(Cl)cc1Cl (stereo not drawn)
 : 6	10	9	0.8	2	-5
35) COc1ccc(-c2cn3cccnc3n2)cc1NC(=O)C1CCCC1
 : 1	-4	1	-0.3	5	-3
36) c1ccc(-c2ccc3c(c2)NC(C2Nc4cc(-c5ccccc5)ccc4O2)O3)cc1 (stereo not drawn)
 : 7	.	-12	-0.4	9	-6
37) CCOC(=O)N(C)c1c(CC)nc2c(OCc3ccc(Cl)cc3Cl)cccn12
 : .	-24	45	0.6	-5	-20
38) CCOC(=O)NNC(=O)CCn1c2c(c3ccccc31)CCCC2
 : -4	.	1	-0.1	-3	-18
39) Cc1ccc(S(=O)(=O)N2CCOCC2)cc1C(=O)OCCOc1cccc(Cl)c1
 : -2	3	-6	0.7	5	10
40) CCCCn1c(N)c(N(CC(C)C)C(=O)c2cc(C)oc2C)c(=O)[nH]c1=O
 : 6	4	3	-0.2	8	-17

Continued; it opens with the two that closed the last part.
Values in the order – TRPV1 potentiator	CtBP-E1A blk	TRPML1 blocker	TRPML1 ag	Six1-Eya2 blk	D2 potentiator
39) Cc1ccc(S(=O)(=O)N2CCOCC2)cc1C(=O)OCCOc1cccc(Cl)c1
 : -2	3	-6	0.7	5	10
40) CCCCn1c(N)c(N(CC(C)C)C(=O)c2cc(C)oc2C)c(=O)[nH]c1=O
 : 6	4	3	-0.2	8	-17
41) Cc1ccc(S(=O)(=O)NCC(=O)N(CC2CCCO2)C(C(=O)NCC2CCCO2)C(C)C)cc1 (stereo not drawn)
 : -3	0	-7	0.3	-2	-5
42) COc1ccc2[nH]c(=O)c(CN(C(=O)c3ccncc3)C(C)C)cc2c1
 : 11	3	-2	-0.3	-2	-5
43) COc1ccc(/C=N/NC(=O)CC(=O)NCc2cccnc2)cc1
 : .	0	-4	-0.2	-3	-12
44) CC(=O)N1CCCc2cc(S(=O)(=O)CCC(=O)N3CCN(c4cccc(C)c4)C(C)C3)ccc21 (stereo not drawn)
 : -27	-1	17	-0.6	1	2
45) CCCn1c(N)c(C(=O)COc2ccc(Br)cc2F)c(=O)n(C)c1=O
 : -6	3	16	0.7	-5	0
46) CCOC(=O)C(=CNc1nc(-c2ccccc2)c(C(=O)Nc2ccc(-c3ccccc3)cc2)s1)C(=O)OCC
 : 7	4	13	-0.4	4	8
47) O=C(NNC1CCN(Cc2ccccc2)CC1)c1ccccc1
 : .	3	-1	-0.3	-10	-28
48) COc1ccc(NC(=O)c2ccco2)cc1NC(=O)c1ccc(C#N)cc1F
 : -1	-20	-22&-4	1.0&1.7	-9	-9
49) CC(=O)c1ccc(NC(=O)CCNS(=O)(=O)c2cc(Br)cnc2N)cc1
 : 25	1	-4	-0.5	2	-10
50) COc1ccc(-c2cn(Cc3ccc4c(c3)C(=O)c3ccccc3C4=O)nn2)cc1
 : 8	-2	-14	-0.6&-0.7	-4	-1

The listing continues.
Values in the order – TRPV1 potentiator	CtBP-E1A blk	TRPML1 blocker	TRPML1 ag	Six1-Eya2 blk	D2 potentiator
51) Cc1ccc(S(=O)(=O)CCC(=O)N2CCc3ccccc32)cc1
 : -28	3	20	0.6	-1	5
52) CNc1ccc(/C=C\CCCO)cn1
 : .	-5	.	-0.4	6	-7
53) COc1cc2c(cc1OC)C(C1C(=O)CC(C)(C)CC1=O)N(C(=O)CCl)CC2 (stereo not drawn)
 : -9	37	-6	?	36	-5
54) C/C(=N\NC(=O)c1ccc(N(C)C)cc1)c1cccnc1
 : -9	-1	-9	-0.4	-3	-41
55) O=C(CCNC(=O)c1ccc(Br)cc1)NCc1ccco1
 : 3	6	5	-0.9	8	-1
56) CC(NC(=O)CSc1nc2c(cc1C#N)CN(C)CC2)c1ccccc1 (stereo not drawn)
 : -20	-5	-12	0.2	-14	-10
57) COC(=O)c1ccc(-c2ncc[nH]2)cc1
 : 0	.	17	-0.3	2	-9
58) Cc1nc(N2CCCCC2)[nH]c(=O)c1CN(C)N=O
 : .	0	-11	0.2	6	-14
59) CCN(CC)Cc1cc(CC(C(N)=O)C(N)=O)ccc1OC
 : 9	8	-6	-0.3	3	3

By substructure: the entries above with fluorine.
Values in the order – TRPV1 potentiator	CtBP-E1A blk	TRPML1 blocker	TRPML1 ag	Six1-Eya2 blk	D2 potentiator
3) CCOC(=O)c1cc2c(ccn2C)n1CC(=O)Nc1ccc(F)cc1
 : 12	-6	43	0.8	6	-4
7) CC(C)c1nnc(NC(=O)CCS(=O)(=O)c2nc(-c3cccs3)cc(C(F)(F)F)n2)s1
 : 24	-19	-4	1.8	7	-26
15) CN(CC(=O)Nc1ccc(OC(F)(F)F)cc1)C(=O)Cc1ccc2c(c1)CCC2
 : 8	1	3	2.8	-3	0
16) Cc1c(CN2CC[C@@H](N3CCN(c4ccccn4)CC3)[C@H](O)C2)[nH]c2ccc(F)cc12
 : 13	-17	28	0.9	-13	21
18) CN(CC(=O)Nc1ccccc1Br)C(=O)c1cccnc1Nc1cccc(C(F)(F)F)c1
 : 1	8	-2	0.1	-5	9
24) CCCCn1cnc2c(SCc3ccccc3F)nc(N)nc21
 : .	-3	11	2.2	-3	0
27) CN(C)c1nc(F)c(F)c(S(=O)(=O)c2ccccc2)c1F
 : 3	17	-7	-0.4	12	0
45) CCCn1c(N)c(C(=O)COc2ccc(Br)cc2F)c(=O)n(C)c1=O
 : -6	3	16	0.7	-5	0
48) COc1ccc(NC(=O)c2ccco2)cc1NC(=O)c1ccc(C#N)cc1F
 : -1	-20	-22&-4	1.0&1.7	-9	-9

Random draw from the library. Share with any hit: about 0.95%.
